VDR inhibitor: Inhibitors of the vitamin D receptor (VDR): qHTS | Vitamin D3 receptor (Homo sapiens), P11473 | VDR-SRC2-3 peptide fluorescence polarization, 2 h | Potency, µM, without a hit: max response, negative = inhibition, actives largely listed as inhibitors | 400,000 compounds, 0.93% hits | AID 504847, 2011; active means well fitted inhibition curve with a large enough effect; inconclusive means small, poorly fitted or top-dose-only effect, or another doubt; inactive means no such curve, though single readings can be large or run the other way; further: series mostly up to about 120 µM
Target sequence (P11473 whole entry, looked up): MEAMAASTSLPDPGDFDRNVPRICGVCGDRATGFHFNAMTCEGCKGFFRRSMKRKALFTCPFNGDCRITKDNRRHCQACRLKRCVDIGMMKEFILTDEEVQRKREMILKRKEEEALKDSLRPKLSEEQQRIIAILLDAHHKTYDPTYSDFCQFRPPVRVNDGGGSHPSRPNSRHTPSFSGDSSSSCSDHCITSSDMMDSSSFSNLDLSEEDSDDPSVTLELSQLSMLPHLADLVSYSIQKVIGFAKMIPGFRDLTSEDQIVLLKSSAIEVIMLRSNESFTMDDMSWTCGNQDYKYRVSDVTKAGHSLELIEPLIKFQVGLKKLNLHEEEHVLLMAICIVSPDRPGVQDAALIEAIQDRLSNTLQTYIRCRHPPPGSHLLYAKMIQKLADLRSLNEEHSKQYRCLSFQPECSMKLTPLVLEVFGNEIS
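Measured by FP: displacement of SRC2-3 coactivator peptide from VDR by library compounds, following a two-hour ambient incubation.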
The depositor's hits bear a star; ? = inconclusive; & = joins results of further samples. On the % scale 0 is the no-effect control and ±100 the full control effect; potency means the concentration at half of the fitted maximal effect. Not all compounds are listed (hit frequency here may not be typical).

VDR inhibitor,SMILES
-26%&-4%,CC(C)N(Cc1ccccc1)C(=O)CN1C(=O)COc2ccc(S(=O)(=O)N3CCCCCC3)cc21
-11%,CCOC(=O)NC(=O)CSc1cc(C)c2cc(C)cc(C)c2n1
6%,CCOc1ccccc1NC(=O)c1ccccc1-c1nc(-c2ccccc2OC)no1
-21%,COCCCNc1nc2c(-c3ccc(Cl)cc3)nnn2c2ccccc12
-8%,COc1ccc(N2CCN(C(=O)c3cc4c(-c5ccccc5F)nn(C)c4s3)CC2)cc1
?,CC(C(=O)C12CC3CC(CC(C3)C1)C2)N1CCOCC1 (configuration not stated)
-16%,Cc1cc(C)c2[nH]c(O)c(N=NC3=NC(=O)CS3)c2c1
-16%,Cc1c(Br)c([N+](=O)[O-])nn1CCCC(=O)N1CCN(c2ccccc2)CC1
5%,COc1ccc2ccc(C(C)(C(C)=O)C(=O)OC(C)C)cc2c1 (configuration not stated)
-15%,COc1ccc2c(c1)C(C)=CC(C)(C)N2S(=O)(=O)c1ccc(C)cc1
6%,COc1ccc(C(=O)OCC(=O)NC2CCCCCCC2)cc1OC
10%,CC(C)NC[C@@H](O)COc1ccc(CCOCC2CC2)cc1

Additional results:
VDR inhibitor,SMILES
1%,CCCN1Cc2cccc(C(=O)N3CCN(c4ccc(OC)cc4)CC3)c2C1=O
-3%,CN1CCC(N(C)C(=O)COc2ccccc2-c2ccccc2)CC1
-3%,CC1(C)Cc2c(sc(NC(=O)C(=O)NCC3CCCO3)c2C(=O)O)CO1 (configuration not stated)
?,C/C=C/Cn1c(SCc2ccc(C)cc2)nc2c1c(=O)[nH]c(=O)n2C
2%,CCC(=O)c1ccc(OCC(=O)N2CCCC2)c(OC)c1
9%,COc1cccc(NC(=O)CSc2nnc(C)s2)c1
-12%,Nc1nnc(SCc2ccc(F)cc2)s1
-4%,Cc1ccc(C(=O)NC2CCN(S(=O)(=O)c3ccccc3)CC2)cc1
-4%,Cn1c(=O)c2c(nc(CN3CCN(c4cccc(Cl)c4)CC3)n2CCc2ccccc2)n(C)c1=O
0%,O=c1ccc(Cl)cn1Cc1ccccc1F
?,CCOC(=O)c1c(NC(=O)c2cc(CC(C)C)on2)sc(C(C)=O)c1C
3%,CN(Cc1ccccn1)C(=O)C1CCC(=O)N(CCc2ccc(Cl)cc2)C1 (configuration not stated)

Additional structures follow:
VDR inhibitor,SMILES
-6%,CN(C)C1(CNC(=O)C2CCC(=O)N(CCc3ccc(Cl)cc3)C2)CCCCC1 (configuration not stated)
-9%,COc1cc(/C(C#N)=C/c2cccc3ccccc23)c([N+](=O)[O-])cc1OC
-4%,CCCSc1nnc2n(C)c(=O)c3c4c(sc3n12)CCC4
-8%,COc1cccc(-c2cc(C(=O)N3CCN(S(=O)(=O)c4ccc(Br)cc4)CC3)[nH]n2)c1
7%,Cc1ccc(-n2ncc(C(=O)Nc3cc(Cl)ccc3C)c2C2CCNCC2)cc1C
0%,CCc1ccc(NC(=S)N2CCN(C)CC2)cc1
-23%,O=C(CSc1ncnc2c1cnn2-c1ccccc1)NCC1CCCO1 (configuration not stated)
1%,CCOc1ccccc1NC(=O)C(NS(=O)(=O)c1cccc2nsnc12)c1ccccc1 (configuration not stated)
-7%,COc1ccc(NC(=S)N2CCNC(=O)C2CC(=O)Nc2ccc(C)cc2)cc1 (configuration not stated)
-8%,CCn1c(CNC(=O)COc2ccc(C(C)C)cc2)nnc1SCC(=O)Nc1ccccc1F
9%,O=c1c(Cc2ccc(Cl)cc2Cl)c(O)ccn1CCCN1CCOCC1
-4%,O=C1CCCN1C(=O)CSc1ncnc2sccc12

The listing continues:
VDR inhibitor,SMILES
4%,Cc1ccsc1/C=N/NC(=O)CNC(=O)c1c(F)cccc1Cl
0%,O=C(C1COc2ccccc2O1)N1CCN(c2nc3ccc(F)cc3s2)CC1 (configuration not stated)
-12%,COC(=O)c1cc(OC)c(OC)cc1NC(=O)c1ccccc1
-4%,NC(=O)[C@@H]1CCCN1C(=O)c1ccc2oc(CCc3ccccc3)nc2c1
-2%,O=C(COC(=O)c1cc(=O)[nH]c2ccccc12)c1cccs1
5%,Cc1cc(C)c(C)c(S(=O)(=O)Nc2ccc(O)cc2)c1C
-1%,Cc1cc(Nc2cccc(C(F)(F)F)c2)nc2ccc(NC(=O)c3cccnc3)cc12
-5%,S=C(NCCc1ccccn1)Nc1ccc(Cl)c(Cl)c1
?,O=C(O)c1ccc(N2CC3CC(C2)c2cccc(=O)n2C3)c(NC(=S)Nc2ccc(Cl)cc2Cl)c1 (configuration not stated)
-3%,O=C(COC(=O)c1c(Cl)cccc1Cl)NCC1CCCO1 (configuration not stated)
3%,OCCN1CCN(c2ncnc3scc(-c4ccc(F)cc4)c23)CC1
-10%,Cc1ccc(C(=O)N/C(=C\c2cccs2)C(=O)NCc2ccncc2)cc1

Quoted at random: two records from the list.
VDR inhibitor,SMILES
-1%,Cc1cc(Nc2cccc(C(F)(F)F)c2)nc2ccc(NC(=O)c3cccnc3)cc12
-5%,S=C(NCCc1ccccn1)Nc1ccc(Cl)c(Cl)c1

(listing goes on)
VDR inhibitor,SMILES
-1%,COc1ccc(NC(=O)c2coc(C)c2)cc1
-21%,O=C(Nc1cccc(Cl)c1)c1cc(-c2ccc3c(c2)OCO3)on1
-10%,COc1ccccc1NC(=O)NNC(=O)c1cc2ccccc2cc1O
2%,Cc1ccc(-c2nc(S(=O)(=O)c3ccccc3)c(SCC(=O)NCC3CCCO3)o2)cc1 (configuration not stated)
19%,Cc1nc2nc(SCC(=O)Nc3cccc(Cl)c3)nn2c(C)c1Cc1ccccc1
3%,C#CCOCCOCCOCCNc1nc(N2CCOCC2)nc(N2CCN(C(=O)[C@H](CCC(=O)O)n3cc([C@@H](N)CCCCN)nn3)CC2)n1
-4%,Cc1ccc2c(c1)c1c(c(=O)n(-c3ccccc3)c(=O)n1Cc1ccccc1C)n2C
-29%,CCOC(=O)c1c(OCC)[nH]c2c1cc(O)c1ccccc12
-3%,c1ccc(CN2CCN(C(c3ccccc3)c3ccccc3)CC2)cc1
-4%,CC1=C(n2ccnc2)CCC1=O
4%,COc1ccc(Cc2nnc(NC(=O)c3cccc([N+](=O)[O-])c3)s2)cc1
17%,Cc1ccc(CNC(=O)c2ccccc2NC(=O)c2nsc3ccccc23)cc1

(listing goes on)
VDR inhibitor,SMILES
-1%,O=C(Nc1ccccc1)N1CCC2(CC1)CCN(S(=O)(=O)c1ccccc1)CC2
-14%,O=C(NCc1nnc(SCC(=O)N2CCN(c3ccccc3)CC2)o1)c1ccco1
12%,CCN(C(=O)c1cc(S(=O)(=O)N2CCOCC2)cn1C)c1ccc(OC)cc1
4%,Clc1ccc2oc3c(Cl)ncnc3c2c1
3%,CCN(CC)c1nc2c(c(=O)[nH]c(=O)n2C)n1CCOc1ccccc1
-1%,COc1cc(CNCCSc2nnnn2C)cc(Br)c1OCc1ccc(F)cc1
-1%,C[C@]12CCC[C@H](O1)c1c(cc3c(c1O)C(=O)c1c(O)cc(O)cc1C3=O)O2
10%,FC(F)(F)c1ccc(-n2cnc3ccccc32)nc1
-15%,COc1ccc(C)cc1NC(=O)C(NS(=O)(=O)c1cccs1)c1ccccc1 (configuration not stated)
15%,Nc1nc(C2CC(=O)OC23CCCCC3)cs1 (configuration not stated)
-20%,N#CCCN(C(=O)COC(=O)C12CC3CC(CC(O)(C3)C1)C2)c1ccc(F)cc1
-12%,O=C1CN(C(=O)c2ccc(Br)o2)C(c2ccccc2)c2cc(Cl)ccc2N1 (configuration not stated)

Next part.
VDR inhibitor,SMILES
-9%,CC(=O)Oc1ccc(-c2cc3ccc(OC(C)=O)cc3oc2=O)cc1
-18%,CN(C)CCCCCN(C)Cc1cc2ccccc2o1
-7%,COc1ccc(C(=O)NCc2nnc(SCC(=O)Nc3cccc(F)c3)o2)cc1
-26%,CCCCCC(=O)Nc1cccc(C2=NOC3(C2)C[C@@H](C(N)=O)N(C(=O)Cc2ccc([N+](=O)[O-])cc2)C3)c1 (some centres not stated)
-10%,CCOC(=O)C1=C(C)N(C[C@@H]2CC[C@@H](Cc3ccc4cc(OC)ccc4c3)O2)C(=O)NC1c1ccc(OC)cc1 (some centres not stated)
1%,Cc1ccccc1C(=O)OC(C)CN1CCN(C)CC1 (configuration not stated)
-11%,CCOC(=O)c1ccc2cccc(C)n2c1=O
0%,COC(=O)c1ccccc1NC(=O)CSc1nnnn1C
-16%,Cc1ccc(S(=O)(=O)N2CCN(c3nc4ccccc4nc3-n3nc(C)cc3C)CC2)cc1
-5%,CCc1cccc(CC)c1NC(=O)C1CSC2(C)CCC(=O)N12 (configuration not stated)
11%,Cc1ccc(SCC(=O)NCc2ccco2)cc1
-5%,Cc1cc(C(=O)CS(=O)(=O)c2ccc(Cl)cc2)cc(C)c1O

Structures above containing an NH in an aromatic ring, in the order listed:
VDR inhibitor,SMILES
-16%,Cc1cc(C)c2[nH]c(O)c(N=NC3=NC(=O)CS3)c2c1
?,C/C=C/Cn1c(SCc2ccc(C)cc2)nc2c1c(=O)[nH]c(=O)n2C
-8%,COc1cccc(-c2cc(C(=O)N3CCN(S(=O)(=O)c4ccc(Br)cc4)CC3)[nH]n2)c1
-2%,O=C(COC(=O)c1cc(=O)[nH]c2ccccc12)c1cccs1
-29%,CCOC(=O)c1c(OCC)[nH]c2c1cc(O)c1ccccc12
3%,CCN(CC)c1nc2c(c(=O)[nH]c(=O)n2C)n1CCOc1ccccc1

Additional compounds follow.
VDR inhibitor,SMILES
9%,Cc1nc(-c2ccc(S(=O)(=O)Nc3cc(Cl)ccc3C)cc2)co1
9%,CCCCCCNc1c(C(=O)OCC)c(=O)[nH]c2ccccc12
?,COc1ccc(CNc2ccnc(-c3ccoc3)n2)c(OC)c1
-11%,CC(NC(=O)COC(=O)/C(=C/c1cccs1)c1cccs1)c1ccccc1 (configuration not stated)
3%,O=C(NNC(=O)c1cccs1)c1ccc(F)cc1
6%,COc1ccccc1OCc1nc(C#N)c(NCCCn2ccnc2)o1
8%,COc1cccc(CNC(=O)Cn2c(SCC(=O)Nc3ccc(F)cc3)nc3ccccc32)c1
-3%,CCC(CC)c1nnc(NC(=O)CCc2ccccc2)s1
-16%,CCCCNC(=O)CSc1nc(N)c(C(=O)Nc2ccc(OC)cc2)s1
6%,Cc1cc(Cl)ccc1OCC(=O)Nc1cccnc1
-7%,O=C(Cc1c[nH]c2ccccc12)N[C@@H](Cc1c[nH]c2ccccc12)C(=O)O
-7%,Cc1ccc(C(=O)NC(Cc2cccc(C(F)(F)F)c2)C(=O)O)cc1 (configuration not stated)

Additional entries follow.
VDR inhibitor,SMILES
?,CC(=O)N1CCN(C(=O)c2cc(S(=O)(=O)N3CCCCC3)ccc2Cl)CC1
6%,CCS(=O)(=O)c1cccc(C(=O)N2CCN(c3nc4c(C)ccc(Cl)c4s3)CC2)c1
-19%,CCn1cc(C(=O)NCc2ccco2)c2cc(OC)c(OC)cc2c1=O
12%,COC(=O)C1=C(C)NC(C)=C(C(=O)OCC2CCCO2)C1c1cccc(Cl)c1 (configuration not stated)
-3%,COCCCN(Cc1ccco1)C(=O)c1cc2c(s1)-c1ccc(Cl)cc1S(=O)(=O)C2
6%,COc1ccc(C(=O)N/C(=C\c2ccccc2)C(=O)Nc2ccccc2C(=O)O)cc1
2%,Cc1cccc(/C=C2\CCC(C3CCCC3)C2=O)c1 (configuration not stated)
-7%,COc1cc(CNc2ncn[nH]2)cc(Br)c1OC
-22%,O=C(c1ccc(N2CCCC2=O)cc1)N1CCN(c2ccccc2F)CC1
3%,CCCN1C(=O)C2(c3ccccc31)c1c(oc3ccccc3c1=O)C(=O)N2CCCOC(C)C (configuration not stated)
-15%,COc1ccccc1-c1nc(N)n[nH]1
-14%,Cc1nn(-c2ccccc2)c(C)c1C(=O)Nc1ccc(N2CCOCC2)cc1

Part of the list above, field by field.
COc1ccccc1-c1nc(N)n[nH]1
  VDR inhibitor = -15%

CCn1cc(C(=O)NCc2ccco2)c2cc(OC)c(OC)cc2c1=O
  VDR inhibitor = -19%

Continuation:
VDR inhibitor,SMILES
6%,COc1ccc2oc(=Nc3cc(F)ccc3F)c(C(N)=O)cc2c1
-4%,CCOC(=O)C1CCN(C(=O)N2CCOCC2)CC1
-10%,O=C(O)c1cc(N2C(=O)C3C4C=CC(C4)C3C2=O)ccc1NCc1cccnc1 (configuration not stated)
-28%,COc1ccc(CC2(CO)CCN(Cc3cccnc3)CC2)cc1
-14%,CNC(=S)N1CCN(c2c(F)cc3c(=O)c(C(=O)O)cn(C4CC4)c3c2OC)CC1C (configuration not stated)
-2%,CC(C)CCn1c(=O)c2ccccc2n2c(CCC(=O)NC3CCN(Cc4ccccc4)CC3)nnc12
-18%,COc1cccc(/C=N/NC(=O)CSc2cccc3cccnc23)c1
12%&-20%,COc1ccc(C2CC(=O)Oc3cc4c(cc32)OCO4)cc1 (configuration not stated)
5%,CN(C)C(CNC(=O)c1cccc(NS(=O)(=O)c2ccc(Br)cc2)c1)c1ccco1 (configuration not stated)
-9%,Cn1/c(=N\NC(=O)C2CCCCC2)sc2ccccc21
-25%,CCCc1[nH][nH]c(=O)c1C(c1cccc(Cl)c1)C(C#N)C#N (configuration not stated)
-12%,COc1ccc(OCCN2C(=O)c3ccccc3C2=O)cc1
-3%&3%&3%,CCCCCCC(=O)OC1CC(C)(C)NC(C)(C)C1

Source: PubChem BioAssay
